RE007 growth inh: less growth of the S. pombe RE007 Vpr strain; S. pombe RE007 Vpr strain, BacTiter-Glo ATP luminescence, 24 h; control for the full effect not named in the record; Potency, µM (highest dose often 92.2 µM), for the others: at the highest dose activity change, negative = less growth; 360,000 tested, 0.21% active; AID 651644; active = well fitted falling curve with a large enough effect; inconclusive = small, poorly fitted or top-dose-only effect; inactive = no such curve, though single readings can be large or run the other way;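 also: % is scaled to controls: 0 for no effect and ±100 for the full control effect; nearly all actives have a fitted effect of over 50% in size; the assay follows cell death caused by Vpr and the record does not say whether a fall means rescue or toxicity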
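Fission yeast strain RE007, carrying one chromosomally integrated HIV-1 vpr copy, was seeded at OD 0.01 in PMG+AL medium with 23 nL pinned compound. After 24 h at 30 °C and 99% humidity, viability was read by BacTiter-Glo luminescence.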
NS1 function inh: inhibitors of influenza NS1 protein function; Potency, µM (titrated, usually from 46.1 µM), inactives show top-dose activity, positive = more growth; S. cerevisiae slowed by influenza A NS1, growth recovery by OD600; 270,000 tested, 0.4% active; AID 2326; active means well fitted rising curve with a large enough effect; inconclusive means small, poorly fitted or top-dose-only effect; inactive means no such curve, though single readings can be large or run the other way; also: nearly all actives have a fitted effect of over 50% in size
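S. cerevisiae expressing influenza A NS1, grown in glucose, washed, then diluted 1:100 into pH 6.0 -URA galactose medium with 23 nl compound. Growth recovery read as OD600; NS1-free strain serves as control.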
SARS PLpro yeast: inhibitors of SARS-CoV papain-like protease in yeast; 330,000 tested, 0.19% active; Potency, µM (top dose mostly 32.9 µM), for inactives: at the highest dose activity, positive = growth rescue; S. cerevisiae expressing SARS-CoV PLpro, growth rescue; control for the full effect not named in the record; active means well fitted rising curve with a large enough effect; inconclusive means small, poorly fitted or top-dose-only effect; inactive means no such curve, though single readings can be large or run the other way; also: 0% is about no effect; nearly all actives have a fitted effect of over 55% in size; growth read by luminescence after 48 h
Cruzain noTriton: inhibitors of Trypanosoma cruzi cruzain without detergent; P25779; purified cruzain, Z-FR-AMC fluorescence, no detergent; Potency, µM, without a hit: max response, negative = inhibition, actives largely listed as inhibitors; 200,000 tested, 2.3% active;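 also: plate controls were enzyme without inhibitor for no effect and buffer without enzyme for full effect; nearly all actives have a fitted effect of over 40% in size; top concentration of the series not given in the record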
Target sequence (P25779 123-467 limits assumed): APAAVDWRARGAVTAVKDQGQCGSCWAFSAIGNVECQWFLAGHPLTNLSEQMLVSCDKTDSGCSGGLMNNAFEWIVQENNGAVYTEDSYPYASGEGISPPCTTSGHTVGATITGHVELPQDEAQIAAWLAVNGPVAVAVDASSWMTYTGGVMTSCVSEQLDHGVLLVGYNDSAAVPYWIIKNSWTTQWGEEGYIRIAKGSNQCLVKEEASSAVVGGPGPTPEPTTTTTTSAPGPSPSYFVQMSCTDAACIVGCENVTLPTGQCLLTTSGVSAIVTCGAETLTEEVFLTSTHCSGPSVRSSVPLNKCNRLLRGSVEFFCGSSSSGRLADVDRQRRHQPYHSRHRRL
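Purified cruzain at 1.5 nM, pre-incubated 15 min with compound at room temperature in 100 mM sodium acetate pH 5.5, 5 mM DTT, 0.00005% Triton X-100. Reaction started with 2 uM Z-FR-AMC; AMC fluorescence increase over 60 s gives rate.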
2A StopGo: FMDV 2A StopGo reporter, luciferase signal; human cells with a luciferase reporter of 2A StopGo recoding; control for the full effect not named in the record; Potency, µM (titrated, usually from 57.9 µM), inactives show at the highest dose signal change, negative = less light; 410,000 tested, 1.2% active; AID 1159524; active = well fitted falling curve with a large enough effect; inconclusive = small, poorly fitted or top-dose-only effect; inactive = no such curve, though single readings can be large or run the other way; tested in HEK293T cells; also: % is scaled to controls: 0 for no effect and ±100 for the full control effect; nearly all actives have a fitted effect of over 45% in size; luciferase light after 4 h
Cruzain inh Det: blocks cruzain activity in presence of Triton detergent; purified cruzain, Z-FR-AMC fluorescence, 0.01% Triton; Potency, µM, for inactives: max response, negative = inhibition, actives largely listed as inhibitors; 200,000 tested, 0.43% active;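 also: plate controls were neutral wells for no effect and buffer without enzyme for full effect; nearly all actives have a fitted effect of over 40% in size; top concentration of the series not given in the record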
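Steps: dispense cruzain (1.5 nM final) in acetate buffer pH 5.5 with DTT and 0.01% Triton X-100; pin-transfer compounds; incubate 15 min RT; add Z-FR-AMC (2 uM final); read fluorescence every 30 s, using the 60 s intensity change.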
LASV entry inh: blocks Lassa virus binding to or entry into cells; Lassa virus pseudotype entry inhibition, cell reporter; control for the full effect not named in the record; Potency, µM (doses to about 37.9 µM), for the others: at the highest dose activity change, negative = inhibition, hits mostly inhibitors; 300,000 tested, 1.2% active; active means well fitted inhibition curve with a large enough effect; inconclusive means small, poorly fitted or top-dose-only effect, or effect the other way; inactive means flat fitted curve, though single readings scatter; tested in HEK293 cells; also: % is scaled to controls: 0 for no effect and ±100 for the full control effect; nearly all actives have a fitted effect of over 50% in size; luciferase read-out
MARV entry inh: inhibitors of Marburg virus binding or cell entry. Potency, µM (top dose mostly 37.8 µM), without a hit: top-dose activity change, negative = inhibition, usual class: inhibitors. Marburg virus pseudotyped entry inhibition, cell reporter; control for the full effect not named in the record; about a third of the inactives were read at about 46 µM. 300,000 tested, 1.8% active. AID 540276; active = well fitted inhibition curve with a large enough effect; inconclusive = small, poorly fitted or top-dose-only effect, or effect the other way; inactive = flat fitted curve, though single readings scatter; tested in HEK293 cells; about a fifth of its hits are not listed in these tables; also: % is scaled to controls: 0 for no effect and ±100 for the full control effect; luciferase read-out
Starred values were filed as active, the others as inactive; ? = inconclusive; . = no result given; [ ] = remark or other dose. Unless noted, calls follow the shape of the dose curve; as a rule, active = well fitted curve in the direction sought with a large enough effect; inconclusive = small, poorly fitted or top-dose-only effect, or another doubt; inactive = no such curve, though single readings can be large; an effect the other way counts as inactive or inconclusive. Potency is read from the fitted curve at half-maximal effect.

compound	RE007 growth inh	NS1 function inh	SARS PLpro yeast	Cruzain noTriton	2A StopGo	Cruzain inh Det	LASV entry inh	MARV entry inh
CC(C)c1cccc(C(C)C)c1NC(=O)Cn1c(=O)cnc2ccccc21	11%	-10%	-5%	-10%	-13%	0.5%	0%	15%
O=C(CSc1ncn[nH]1)N1CCOCC1	-15%	-3%	0%	.	-11%	.	.	.
CC(C)Oc1cccc(C(=O)NC(=S)Nc2cccc(C(F)(F)F)c2)c1	16%	6%	-1%	-4%	-19%	-9.3%	?	?
Cc1cccc(NC(=O)C2CCN(c3ncnc4c3nc3n4CCCCC3)CC2)n1	4%	-10%	-1%	.	?	.	.	.
Fc1ccccc1-n1cc(-c2ccccc2)[nH]c1=S	13%	.	1%	.	24%	.	6%	4%
CCN(CC)C(=O)C(C)N(C#N)c1nc(NC(C)C)nc(NC(C)C)n1 (stereo not given)	-15%	2%	3%	6%	2%	3.6%	19%	25%
Oc1ccc(Cl)cc1C=NN1CCCCCC1	-1%	.	.	.	20%	.	?	?
CC(C)Oc1ccc(CNC(=O)C2CCN(C(=O)N3CC(C)Oc4ccccc43)CC2)cc1 (stereo not given)	.	.	.	1%	?	-5.0%	?	.
CCC(CC)C(=O)OCc1cc(=O)n2nc(C3CCCCC3)sc2n1	.	.	.	-5%	29%	-4.7%	?	.
CCOc1ccc(S(=O)(=O)NCc2ccc3c(c2)OCO3)cc1NC(C)=O	-16%	15%	-4%	.	10%	.	.	.
COc1ccc(OC)c2[nH]c(=O)c(CCNC(=O)c3cccs3)cc12	10%	-6%	1%	.	-23%	.	1%	5%
CCOC(=O)c1ccc(NC(=O)CSc2nc3sc(C(=O)O)c(C)c3c(=O)[nH]2)cc1	11%	3%	1%	.	14%	.	1%[46.1 µM]	4%[46.1 µM]
CCOC(=O)c1ccc(N2C(=O)C3C(/C=C/c4ccccc4)OC4(C(=O)c5ccccc5C4=O)C3C2=O)cc1 (stereo not given)	-8%	?	?	?	-9%	-4.3%	3%	7%
O=c1[nH]c2ccccc2nc1/C=C/c1ccccc1	-12%	-6%	-1%	.	38%[activator]	.	10%[46.1 µM]	-1%[46.1 µM]
CC1(CC(=O)N/N=C/c2ccc(OCc3ccc(Cl)cc3Cl)cc2)OCCCO1	52%	-19%	-19%	?	-6%	-11%	?	?
CCN(CC)S(=O)(=O)c1ccc(OC)c(NC(=O)CSc2cc(Cl)ccc2Cl)c1	-7%	10%	2%	-14%	-3%	-4.0%	?	?
CCCN(CCC)Cc1c(C(=O)N/N=C/c2ccncc2)nnn1-c1nonc1N	4%	2%	11%	.	18%	.	.	.
COc1ccc(CCNC(=O)C2CC(=O)N(c3ccc(C)cc3)C2)cc1 (stereo not given)	2%	-12%	-13%	.	-1%	.	3%[46.1 µM]	-3%[46.1 µM]
COc1ccc(C(=O)N2CCCCC2)cc1S(=O)(=O)Nc1ccccc1	-11%	-3%	13%	4%	.	-3.8%	11%	14%
CCCn1nc(C(=O)NCCN2CCOCC2)c2ccccc2c1=O	-12%	-3%	0%	1%	13%	3.1%	1%	2%
S=C(c1ccc2c(c1)OCO2)N1CCCCCC1	-14%	-3%	6%	1%	4%	-22%	-1%	0%
CC(C)=CCCC1=CCC(/C=N/NC(N)=O)C(C)C1 (stereo not given)	22%	-5%	15%	-2%	1%	-8.2%	?	-11%
COc1ccc(N=Cc2cccc(C)c2O)cc1Cl	-3%	-8%	-5%	-2%	23%	-0.5%	?	20%
O=C(COC(=O)c1ccc[nH]c1=O)NCCC1=CCCCC1	-10%	.	-11%	.	18%	.	0%[46.1 µM]	?
COC(=O)c1c(NC(=O)COC(=O)CNC(=O)c2ccco2)sc(C)c1C	1%	-12%	-14%	9%	-4%	-8.9%	-5%	-11%
N/C(=N\O)c1cn(Cc2ccccc2Cl)c2ccccc12	14%	-2%	2%	.	?	.	-16%	?
COc1ccc(C(=O)Oc2c(Sc3ccc(C)cc3)c(C)nn2C(C)(C)C)cc1OC	.	.	.	-4%	?	0.8%	-6%[46.1 µM]	?
Cc1ccc(NS(=O)(=O)c2c(C)[nH]c(C)c2C(=O)N2CCCCC2)c(Cl)c1	-2%	-4%	0%	.	40%[activator]	.	.	.
CCOC(=O)C1=C(COC(=O)C2CC(=O)N(c3ccc(C)cc3)C2)NC(=O)NC1C (stereo not given)	12%	.	1%	.	-10%	.	-22%	6%[46.1 µM]
Cc1ccc(S(=O)(=O)NC2=NCN(CCN3CCOCC3)CN2)cc1	5%	-12%	4%	2%	4%	3.1%	-4%	7%
C=CCc1cc(C)ccc1OCCCC(C(=O)OCC)C(=O)OCC	3%	-7%	-6%	-1%	?	-9.9%	-7%	-19%
CCCC1C2CN(C(C)C)CC=C2C(C#N)=C(N)C1(C#N)C#N (stereo not given)	-18%	-3%	9%	-30%	-2%	?	-22%	?
CC1S/C(=N/N=C/c2ccco2)NC1=O (stereo not given)	8%	-4%	-7%	-6%	6%	-0.4%	6%	-9%
CCn1c(-c2cc(OC)c(OC)c(OC)c2)n[nH]c1=S	11%	4%	0%	1%	-13%	-2.3%	-11%	2%[46.1 µM]
O=C(O)CSc1nnc(COc2cccc3cccnc23)n1-c1cccc(C(F)(F)F)c1	21%	.	-1%	.	?	.	10%	3%[46.1 µM]
CCOc1cccc(/C=N/NC(=O)c2cc(C3CC3)[nH]n2)c1O	-8%	-26%	?	.	25%	.	.	.
COc1ccc(CNC(=O)CN(C(=O)CCC(=O)Nc2ccccn2)c2cccc(C)c2)cc1	-15%	6%	-1%	.	-4%	.	?	?
O=S(=O)(NC1=NCCCCC1)c1ccc2ccccc2c1	5%	-5%	18%	-18%	81%[activator]	2.3%	-1%	15%
COc1cccc(CN(C(=O)c2ccco2)C(C(=O)NC2CCCC2)c2cccnc2)c1 (stereo not given)	9%	-4%	3%	3%	-8%	7.3%	5%	-11%
Cc1ccc(S(=O)(=O)N2CCC(=O)N(CCOCc3cccc(F)c3)CC2)cc1	-13%	2%	-1%	?	-15%	-2.3%	?	24%
Cc1nn(C(=O)c2ccco2)c(C)c1Br	-14%	3%	-2%	-1%	-3%	2.2%	2%	21%
CCC[C@H]1COCCS(=O)(=O)N1Cc1ccccc1	-2%	-5%	2%	.	-8%	.	.	.
NC(=O)C1CCN(C(=O)c2ccc3c(c2)S(=O)(=O)c2ccccc2C3=O)CC1	8%	-20%	1%	.	35%[activator]	.	9%	9%[46.1 µM]
CCCn1c(=O)c2ccccc2n2c(SCN3C(=O)c4ccccc4C3=O)nnc12	.	-7%	3%	9%	.	2.1%	.	1%
CCc1ccc(NC(=O)c2ccccc2SC)cc1	-25%	-3%	0%	.	-6%	.	28%[46.1 µM]	-2%[46.1 µM]
CCCC(=O)Nc1nn(C)c2nc3cc(C)ccc3cc12	.	-15%	9%	8%	.	-0.1%	.	-3%
O=c1c(N2CCOCC2)nsnc1N1CCOCC1	-1%	4%	?	-12%	-10%	-3.9%	14%	16%
Cc1ccc(C)c(NC(=O)CN(C)C(C)C(=O)N2CCCC2)c1 (stereo not given)	5%	.	-1%	.	-1%	.	10%[46.1 µM]	-7%[46.1 µM]
O=C(NCc1ccco1)c1ccc(C(=O)NCc2ccco2)cc1	-11%	.	.	.	0%	.	1%	-8%
CC(=O)NCCC(=O)N(C)CC1CCN(CCc2cccc(C(F)(F)F)c2)CC1	-2%	-3%	-6%	.	-5%	.	-3%[46.1 µM]	2%[46.1 µM]
O=C(CN1CCN(c2ccccn2)CC1)Nc1ccccc1	-4%	6%	10%	-19%	-20%	3.7%	0%	-16%[46.1 µM]
CSc1ccccc1NC(=O)c1cc(-c2cccs2)on1	-14%	-59%	2%	-22%	49%[activator]	0.3%	19%	?
Cc1noc(C)c1S(=O)(=O)N1CCC(C(=O)NCCN2CCC(C)CC2)CC1	42%	-4%	3%	6%	-15%	6.6%	8%	0%[46.1 µM]
Cc1ccc(OCCOCCN2CCN(C)CC2)c(C(C)(C)C)c1	-24%	16%	32%	.	-8%	.	.	.
CCOc1ncccc1C(=O)N(C)CC(=O)Nc1ccc(F)cc1	.	-5%	11%	-2%	5%	-1.4%	-8%	-27%
CC1CC(C(O)c2ccccn2)C(=O)C(C(O)c2ccccn2)C1 (stereo not given)	12%	-31%	.	.	0%	.	-5%[46.1 µM]	-26%[46.1 µM]
COCc1cc(C)c2c(N)c(C#N)sc2n1	-9%	-12%	5%	5%	-2%	3.5%	-1%	-1%
CS(=O)(=O)N(CC(=O)NCCSCc1ccccc1)c1ccccc1F	-10%	9%	13%	.	-14%	.	.	.
COC(=O)C1=NNC2C(=O)N(c3ccc(C)cc3)C(=O)C12 (stereo not given)	-10%	.	-1%	.	-14%	.	21%	19%
O=C(CCSCCC(=O)NCc1ccccc1)NCc1ccccc1	-1%	0%	9%	3%	.	4.6%	-4%	18%
Cc1c(C(=O)O)cccc1-c1ccc(C=O)o1	14%	5%	-5%	-1%	23%	-2.0%	9%	?
